# LANA-H2A inh: blocks KSHV LANA binding to histone H2A/H2B | Q9QR71 | cell-free LANA-H2A/H2B peptide, fluorescence polarization | inhibition, % (concentration not given with the values) | 320,000 tested, 0.6% active; in the data active = inhibition mostly above about 10%, no sharp cut-off; inactive = mostly below about 6.7%;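 also: stock transfer was 7.5 nL into about 10 µL; 0% = median of vehicle wells and 100% = median of positive control wells; one replicate is shown; the record names a cut of 25% in any replicate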
# UCH37 DUB inh: inhibitors of human deubiquitinating enzyme UCH37 | 330,000 tested, 0.33% active | inhibition, % (concentration not given with the values) | purified proteasome/UCH37, Ub-AMC cleavage fluorescence | Q9Y5K5;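 active = mean of two replicates above 20%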;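 also: 0% = compound-free wells with enzyme and 100% = wells lacking proteasome; stock transfer was 100 nL into about 20 µL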
#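 Signal – fluorescence, ex 355 nm, em 460 nm · System – Proteasome-bound UCH37 · Input – 0.15 nM proteasome as dispensed · Timing – 30 min preincubation with enzyme, 25 min cleavage at room temperature · Read-out basis – percent inhibition of cleavage signal versus uninhibited and no-proteasome wells · Medium – Tris-HCl pH 7.4 with ATP-MgCl2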
# Beta2AR agonist: human beta-2 adrenergic receptor agonism by FAP; Am2.2-beta2AR cells, FAP receptor internalization, flow cytometry; reference of the scale not given here; 340,000 tested, 0.43% active; response, % (concentration not given with the values); P07550;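 active = response above a set limit, near 3 SD of response in nonfluorescent compounds, cut at about 42% in these data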;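 also: stock transfer was 100 nL into about 11 µL; a reference agonist was the positive control; negative values mostly stem from fluorescent compounds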
# Target sequence (P07550 whole entry, looked up): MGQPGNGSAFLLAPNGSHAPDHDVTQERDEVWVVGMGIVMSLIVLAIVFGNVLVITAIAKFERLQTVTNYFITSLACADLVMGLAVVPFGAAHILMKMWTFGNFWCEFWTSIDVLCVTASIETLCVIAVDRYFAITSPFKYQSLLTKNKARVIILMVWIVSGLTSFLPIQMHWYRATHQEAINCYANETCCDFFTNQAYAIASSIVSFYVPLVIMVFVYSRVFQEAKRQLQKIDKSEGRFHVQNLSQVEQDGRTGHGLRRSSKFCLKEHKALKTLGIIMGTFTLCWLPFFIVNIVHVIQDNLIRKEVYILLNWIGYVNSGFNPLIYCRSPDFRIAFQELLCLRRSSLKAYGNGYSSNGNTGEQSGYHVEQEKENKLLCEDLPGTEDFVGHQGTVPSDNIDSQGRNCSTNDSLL
# E coli growth: inhibitors of Escherichia coli growth. 330,000 tested, 0.21% active. AID 1053175. OD600, 23 h; hits give low values. OD600 absorbance (no concentration beside the values);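 active = OD600 absorbance below the run mean of sample wells minus 3.6 SD, in any replicate, cut at about 0.56 in these data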;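 also: stock transfer was 300 nL into about 60 µL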
# FGF22 binding: FGF22 (human) thermal shift binding; Q9HCT0; recombinant FGF22 thermal shift, SYPRO orange fluorescence; percent of sucrose octasulfate shift, DMSO zero; calls only at 9.99 µM; 340,000 tested, 1.5% active; AID 651658;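 active = melting point raised past a set limit in the mean and every replicate; three in four hits are not shown here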
# Target sequence (Q9HCT0 whole entry, looked up): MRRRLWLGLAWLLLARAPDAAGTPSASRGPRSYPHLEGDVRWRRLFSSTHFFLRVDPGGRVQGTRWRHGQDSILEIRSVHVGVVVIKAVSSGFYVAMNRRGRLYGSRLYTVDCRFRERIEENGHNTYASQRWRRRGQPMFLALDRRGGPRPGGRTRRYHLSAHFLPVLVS
# HNF4A DNA FP: change in binding of human HNF4 alpha to DNA; HNF4a-FITC DNA binding, fluorescence polarization, 1 h; 360,000 tested, 0.3% active; P41235; AID 1224865; activity change, % at 10 µM; in the data active = activity change above about 30%, passing the limit was not always enough;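 also: controls were the assay level and a saturating level of protein; the project sought stronger binding though the title names inhibitors; some compounds called inactive have numbers as strong as hits; positive values seem to mean higher polarization but the record does not say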
# ALR H2O2 inh: blocks human ALR sulfhydryl oxidase activity | P55789 | purified ALR, DTT oxidation, H2O2 HRP-luminol luminescence | inhibition, % (test concentration not listed) | 290,000 tested, 3.8% active;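 active = mean and each replicate at 75% or more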;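 also: stock transfer was 7.5 nL into about 7.5 µL; 0% = neutral wells and 100% = wells with inactivated enzyme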
# Target sequence (P55789 whole entry, looked up): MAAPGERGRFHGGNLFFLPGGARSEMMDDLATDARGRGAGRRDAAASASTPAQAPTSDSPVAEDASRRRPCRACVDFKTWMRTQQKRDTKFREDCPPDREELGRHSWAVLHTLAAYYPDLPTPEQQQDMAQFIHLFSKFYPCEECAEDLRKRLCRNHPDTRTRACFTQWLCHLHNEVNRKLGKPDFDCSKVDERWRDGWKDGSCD
# Active calls of the source: *; i = inactive; · = no result given.
SMILES,LANA-H2A inh,UCH37 DUB inh,Beta2AR agonist,E coli growth,FGF22 binding,HNF4A DNA FP,ALR H2O2 inh
CC(=O)c1ccc(NC(=O)c2ccc(CNc3c(N4CCOCC4)c(=O)c3=O)cc2)cc1,0.1,2.7,1,0.71,i,-0.8,-5
Cc1noc(C)c1C(=O)OCC(=O)Nc1cc(Cl)ccc1Oc1ccccc1,-8.0,4.2,-12,0.69,·,0.2,1
CC(C)(C)c1cc(NC(=O)c2ccco2)n(-c2ccccc2)n1,-5.2,-0.1,-17,0.69,i,0.6,-4
CCCCN(CC)Cc1ccc(CNC(=O)Nc2ccc(F)cc2)o1,-5.8,5.9,-8,0.63,·,-3.5,5
Cc1nn(CC(=O)N(C)C2CCS(=O)(=O)C2)c(C)c1S(=O)(=O)N(C)C (stereo unspecified),-0.6,3.6,0,0.69,i,-3.1,-3
O=C(NC1CCCC1)C1CCCN1C(=O)Nc1ccccc1Cl (stereo unspecified),0.9,3.8,17,0.69,·,-4.5,-8
Cc1ccc(NS(=O)(=O)c2ccc3c(c2)oc(=O)n3C)cc1C,-1.7,1.8,-1,0.67,i,7.2,-3
COc1ccc(C/C(N)=N/OC(=O)c2cccs2)cc1,-2.8,-0.9,1,0.69,i,1.2,·
COC(=O)[C@H](CCSC)NC(=O)c1cccnc1SC,-1.9,-0.7,3,0.65,i,2.4,-2
Cn1c(SCC(=O)NC2CC2)nnc1-c1ccc(Cl)cc1,0.0,0.5,1,0.6,i,1.9,-1
CC(C)CNC(=O)C(=O)Nc1ccc(N(C)C)cc1,-0.6,1.3,-5,0.66,i,1.2,23
Cc1onc(-c2ccccc2Cl)c1C(=O)OCC(=O)Nc1cccc(S(=O)(=O)N(C)C)c1,6.0,2.1,4,0.65,i,-1.3,7
Cc1ccc(S(=O)(=O)NCCc2nnc3ccc(SCC(=O)Nc4nc(C)cs4)nn23)cc1,14,5.3,4,0.65,i,3.7,98*
CCOC(=O)c1cc(NC(=O)OC)c(C)nc1C,5.1,3.4,4,0.72,·,0.0,6
O=C(CN1CCOCC1)Nc1ccccc1Sc1ccccc1,2.6,0.7,3,0.72,i,-0.8,22
CC[C@]1(C(=O)OC)[C@H]2C(=O)N(C)C(=O)[C@H]2[C@H]2CN=C(SCC3CC3)N21,·,-0.1,2,0.73,i,3.0,·
Brc1ccc(NC(c2ccccc2)c2ccncc2)cc1 (stereo unspecified),2.8,3.5,3,0.68,i,0.1,·
CC(=O)N/C(=C\c1ccccc1)C(=O)OCC(=O)N1CCCCCC1,-1.2,4.0,-6,0.68,i,-1.7,7
COc1ccc(S(=O)(=O)N2CCN(CCc3ccccc3)CC2)c(OC)c1,6.3,0.3,-8,0.66,i,0.4,-43
O=C(NCCC1=CCCCC1)C1CCN(S(=O)(=O)c2ccc(-n3cnnn3)cc2)CC1,·,2.3,-2,0.76,·,1.0,·
Cc1cccc(/C=C2/Sc3ccc(C(=O)NCCN4CCCC4)cc3NC2=O)c1,-1.4,7.2,29,0.66,i,5.8,1
CC(C)(C)NC(=O)NC(=O)CN1CCN(S(=O)(=O)c2ccc3c(c2)CCCC3)CC1,-8.4,5.6,5,0.68,·,-1.4,-1
CCc1noc(C)c1C(=O)OC(C)C(=O)Nc1ccc2c(c1)OCO2 (stereo unspecified),-1.1,-1.7,-1,0.67,i,1.4,-14
O=C(CCl)NC(Cc1c[nH]c2ccc(OCc3ccccc3)cc12)C(=O)O (stereo unspecified),2.6,1.2,9,0.64,i,0.0,5

# Printed as active in ALR H2O2 inh, among the entries above:
SMILES,LANA-H2A inh,UCH37 DUB inh,Beta2AR agonist,E coli growth,FGF22 binding,HNF4A DNA FP,ALR H2O2 inh
Cc1ccc(S(=O)(=O)NCCc2nnc3ccc(SCC(=O)Nc4nc(C)cs4)nn23)cc1,14,5.3,4,0.65,i,3.7,98*

# Next results.
SMILES,LANA-H2A inh,UCH37 DUB inh,Beta2AR agonist,E coli growth,FGF22 binding,HNF4A DNA FP,ALR H2O2 inh
CC(C)Oc1ccccc1OCCCCn1cnc2ccccc2c1=O,-0.5,1.4,-3,0.7,i,-2.2,-4
CN(Cc1ccc2nsnc2c1)Cc1nc(Cc2cccc(F)c2)no1,0.8,6.4,-2,0.74,i,-1.0,·
CC1=NN(c2ccccc2)C(=O)C1C(=O)C(=O)Nc1ccc(F)cc1 (stereo unspecified),6.7,0.2,13,0.65,i,-1.2,-14
Cc1cccc(N(C(=O)CNC(=O)c2ccco2)C(C(=O)NCC2CCCO2)c2ccccc2)c1 (stereo unspecified),-1.2,4.1,2,0.67,i,-2.1,-2
CCOC(=O)c1c(NC(=S)Nc2ccc(OCC)cc2)sc2c1CCN(C)C2,-19,3.8,13,0.61,·,11,·
CCOC(=O)C1CCCN(C(=O)Cn2ncc3c([nH]c4ccccc43)c2=O)C1 (stereo unspecified),3.9,-1.1,2,0.64,i,0.4,1
Cc1cc(C(=O)Nc2nnc(C(F)(F)F)s2)cs1,-5.9,4.9,6,0.68,i,7.2,8
O=C1c2ccccc2C(=O)N1CC(=O)N1c2ccccc2Sc2ccc(C(F)(F)F)cc21,-1.6,2.9,-6,0.67,i,1.9,0
CC1(C)CC2CC(C)(CN2C(=O)c2ccc([N+](=O)[O-])cc2[N+](=O)[O-])C1 (stereo unspecified),0.1,-1.6,0,0.71,·,-0.9,-24
CCN(C(=O)COC(=O)c1ccccc1Cc1ccccc1)C1CCS(=O)(=O)C1 (stereo unspecified),-2.1,5.2,-5,0.7,i,-1.4,-4
COc1cc(C(=O)Oc2cccc(/C=N/NC(=O)c3cccnc3)c2)cc(OC)c1OC,-1.6,·,3,·,i,3.1,·
CC(=O)c1ccc(NC(=O)c2ccc([N+](=O)[O-])o2)cc1,-1.0,9.8,15,0.47*,i,-0.2,-33

# By substructure: those above with an aryl methoxy group.
SMILES,LANA-H2A inh,UCH37 DUB inh,Beta2AR agonist,E coli growth,FGF22 binding,HNF4A DNA FP,ALR H2O2 inh
COc1ccc(C/C(N)=N/OC(=O)c2cccs2)cc1,-2.8,-0.9,1,0.69,i,1.2,·
COc1ccc(S(=O)(=O)N2CCN(CCc3ccccc3)CC2)c(OC)c1,6.3,0.3,-8,0.66,i,0.4,-43
COc1cc(C(=O)Oc2cccc(/C=N/NC(=O)c3cccnc3)c2)cc(OC)c1OC,-1.6,·,3,·,i,3.1,·

# More entries:
SMILES,LANA-H2A inh,UCH37 DUB inh,Beta2AR agonist,E coli growth,FGF22 binding,HNF4A DNA FP,ALR H2O2 inh
CCOC(=O)c1nnn(CC(=O)NC(=O)Nc2ccc(F)cc2)c1C(=O)OCC,-1.4,2.3,21,0.66,i,3.6,-34
Oc1c(Br)cc(Br)cc1C=Nc1cccc2ncccc12,1.6,11,19,0.62,i,-8.1,-7
Cc1sc2nc(CSCC(=O)NC3(C#N)CCCCC3)[nH]c(=O)c2c1C,-5.8,-2.0,3,0.71,i,9.8,95*
COCCCn1c(=O)c2sccc2n2c(CCCC(=O)N3CCN(c4ccccn4)CC3)nnc12,-0.7,-0.3,-9,0.69,i,-1.7,0
COc1cc(C(=O)O)c([N+](=O)[O-])c(OC)c1OC,6.0,5.7,-5,0.66,i,-3.6,-8
CC(C)CCNC(=S)Nc1ccccn1,-1.8,3.1,-7,0.65,·,3.3,91*
COc1ccccc1N1CCN(C(=O)c2ccc3ncsc3c2)CC1,·,2.7,-2,0.69,i,3.1,·
COC(=O)c1ccc2[nH]c(C(C)(C)O)c(C)c2c1,2.6,·,-4,·,i,2.3,5
O=C(O)CCC1(c2ccccc2)NC(=O)NC1=O (stereo unspecified),0.6,-2.2,0,0.7,i,-1.0,·
COc1ccc(NS(=O)(=O)c2cccc(NC(=O)CNC(C)=O)c2)cc1,-7.6,1.1,-3,0.7,i,3.2,-2
O=C(N/N=C/c1ccc(O)cc1O)NC12CC3CC(CC(C3)C1)C2,7.9,·,44*,·,i,2.8,-4
Cc1cc(N2CCN(C(=O)OC(C)(C)C)CC2)n2ncnc2n1,-0.4,2.3,4,0.69,·,-0.1,0
CC(C)C12NC(=O)NC(=O)N1CCS2 (stereo unspecified),·,·,6,·,i,-2.0,·
Cc1cc(C)c(NC(=O)CN2CCOCCOCCOCCOCC2)c(C)c1,7.1,-6.3,1,0.72,·,-0.9,-20
CCOC(=O)C1CCN(C(=O)COc2cc(C)c(Br)cc2C)CC1,6.2,5.8,-6,0.68,·,-0.1,20
Oc1ccc(CN2CCN(Cc3ccccc3)CC2)c2cccnc12,0.4,3.2,9,0.69,·,-1.2,-7
O=C(OCc1ccc(Br)cc1)c1ccncc1,-4.1,2.3,1,0.67,i,2.7,-7
COc1c(C=NNC(N)=O)c(OC)c(OC)c2c1CCO2,·,-0.2,-5,0.66,i,3.1,·
CN(C)NC(=S)Nc1cccc(Cl)c1,1.7,3.1,7,0.68,i,-3.7,16
Cc1cnc(C(=O)OCC(=O)NC2CCCC(C)C2C)cn1 (stereo unspecified),1.8,4.1,4,0.66,·,1.1,-8
COc1ccc2nc(NC3=NCCC3)sc2c1,0.6,0.4,2,0.66,·,0.8,4
Cc1cc(NCc2ccccn2)nc2ccccc12,3.9,-17,-20,0.68,i,0.0,84*
COc1ccc(CCC(C)NCC(C)c2ccccc2)cc1 (stereo unspecified),-1.0,5.2,-3,0.63,i,0.9,-2
O=C(O)c1ccccc1C(=O)NCc1ccc2c(c1)OCO2,-9.3,3.4,3,0.69,i,0.6,0
Cc1cc(OC(=O)c2ccc(Cl)cc2Cl)c([N+](=O)[O-])c(=O)[nH]1,0.8,8.1,1,0.74,i,-1.8,-6
Cc1c(NS(=O)(=O)c2ccc3c(c2)n(C)c(=O)n3C)c(=O)n(-c2ccccc2)n1C,-0.7,-1.4,-5,0.72,·,0.8,-4
CC(=O)Nc1cccc(NC(=O)CCn2c(=O)sc3ccccc32)c1,1.8,5.2,9,0.73,·,-1.1,-17
COc1cc(NC(=O)CSc2ccccc2)c(C(=O)O)cc1OC,-1.5,2.1,3,0.71,i,-2.6,-1
COc1cc(OC)cc(-c2cc3nc(C4CCN(C(=O)OC(C)(C)C)CC4)cc(=O)n3[nH]2)c1,-1.6,-5.5,5,0.68,i,2.5,3
Cn1ncc([N+](=O)[O-])c1C(=O)Nc1ccccc1Cl,13*,1.5,21,0.66,i,0.6,-9
COc1ccc(C(=O)NCCNC(=O)c2cc(OCC(F)(F)F)ccc2OCC(F)(F)F)cc1,4.7,-0.8,2,0.75,·,0.0,5
CCOC(CCNC(=O)c1cc(-c2cccs2)nc2ccccc12)OCC,1.9,-282,3,0.69,i,-0.5,-1
COc1cccc(CCC(=O)Nc2cccc(S(=O)(=O)N3CCCC3)c2)c1OC,1.3,1.9,2,0.67,i,-0.7,·
CCCCCCC(NC(=O)c1ccc(C)cc1)C(=O)O (stereo unspecified),·,3.5,3,0.69,i,-2.1,·
COc1ccc(-c2csc(N3N=C(C)C(C)C3=O)n2)cc1 (stereo unspecified),6.9,-0.2,3,0.64,i,-6.5,59
CN(C)Cc1c(OC(=O)c2ccc(N)cc2)ccc2ccccc12,·,2.3,8,0.66,i,0.9,·
O=C(COC(=O)c1ccc(Cl)nc1)NC1CCCc2ccccc21 (stereo unspecified),2.2,-0.6,-8,0.66,i,-4.8,-3
O=c1[nH]cnc2scc(-c3ccc(-c4ccccc4)cc3)c12,-1.9,-1.3,2,0.67,·,0.1,-1
CCOc1ccc(C(=O)N2CCCC2)cc1,-15,0.8,-3,0.65,·,-1.1,0
O=C(O)c1ccc(NS(=O)(=O)c2cc(C(=O)O)ccc2Br)cc1,2.7,-1.6,11,0.7,·,-1.6,-15

# A second format for part of the listing above:
# Each structure is followed by: LANA-H2A inh | UCH37 DUB inh | Beta2AR agonist | E coli growth | FGF22 binding | HNF4A DNA FP | ALR H2O2 inh
- O=c1[nH]cnc2scc(-c3ccc(-c4ccccc4)cc3)c12
  -1.9 | -1.3 | 2 | 0.67 | · | 0.1 | -1
- CCOc1ccc(C(=O)N2CCCC2)cc1
  -15 | 0.8 | -3 | 0.65 | · | -1.1 | 0
- O=C(O)c1ccc(NS(=O)(=O)c2cc(C(=O)O)ccc2Br)cc1
  2.7 | -1.6 | 11 | 0.7 | · | -1.6 | -15

# Not all compounds are listed; rates above refer to the full screens.
